Biofilm kill mix – mixtures killing C. albicans biofilm. C. albicans biofilm persisters + clotrimazole, fluorescence viability; primary screen in compound mixtures of four per well. inhibition, % at 7.6 µM. actives 0.02% (n = 120,000). AID 1242;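 active means inhibition above 30.3% in the primary screen of four-compound pools, then above 30% when the compound was retested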;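 further: compounds exposed to preformed 24 h biofilms for 48 h; the number belongs to the whole pool; some results filed as inactive read as strong as hits; inactives centre near 12; 0% = biofilm with clotrimazole alone and 100% = kill control; retested singly at about 60 µM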
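Test system: C. albicans CAF4-2 wild-type biofilms; buffer or medium: RPMI/MOPS medium, pH 7.0; schedule: 24 h biofilm formation, then 48 h compound exposure, 37 °C; detection: Alamar Blue fluorescence; measure: percent inhibition of biofilm viability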
* marks the source's active call; other numbers are inactive results. An excerpt. The share of hits here may be higher or lower than overall.

Structure	Biofilm kill mix
CCC(CC)C1=NN2C(=N)/C(=C\c3cc(C)n(-c4cccc(C)c4)c3C)C(=O)N=C2S1	4
Cc1c(N2C(=O)c3cccc4cccc(c34)C2=O)cnn1C	4
C#CCNC(=O)C(C)c1ncc(C(F)(F)F)cc1Cl (centres undefined)	15
COc1ccc2cc(C(C)c3nc4ccccc4c(=O)n3N)ccc2c1 (centres undefined)	16
COc1ccc(CCNC(=O)/C(C#N)=C/c2ccc(OCC(=O)NCC3CCCO3)cc2)cc1OC (centres undefined)	12
NS(=O)(=O)c1ccc(O)c(N2C(=O)c3cccc4c(C(=O)O)ccc(c34)C2=O)c1	7
CC1CCCCN1CCn1c(=S)[nH]c2cc3c(cc2c1=O)OCO3 (centres undefined)	15
Cc1cc2oc(C(=O)N(Cc3ccccc3)c3ccccn3)cc(=O)c2cc1Cl	15
Cc1ccccc1-c1ncc(CN2CCN(C3CCCC3)C(CCO)C2)cn1 (centres undefined)	1
O=C1c2ccccc2C(=O)N1CC(O)CN1CCOCC1 (centres undefined)	10
COCC(C)n1c(C)cc(C(=O)CSc2ncccn2)c1C (centres undefined)	11
C/C(=N\NC(=S)NC1CCCCC1)c1cccs1	9
COC(=O)c1c(C)oc(C)c1S(=O)(=O)N(Cc1ccccc1)C(C)C	10
Cc1ccc(CN2CCN(C/C(Cl)=C/c3ccccc3)CC2CCO)o1 (centres undefined)	18
C=CCn1c(SCC(N)=O)nc2nc3c(cc2c1=O)COC(C)(C)C3	16
Cc1ccc2nsnc2c1NC(=O)COc1ccccc1F	12
C=CCN(CC=C)C(=O)Nc1ccc2nc(C)sc2c1	11
CCOP(=O)(OCC)C(O)c1cc(OC)c(OC)c(OC)c1 (centres undefined)	12
O=c1[nH]nc(N/N=C/c2ccccc2OC(F)F)c(=O)[nH]1	15
CCOC(=O)c1cc(C#N)c(SCC(=O)O)[nH]c1=O	21

Reformatted field by field: part of the list above
Structure: C/C(=N\NC(=S)NC1CCCCC1)c1cccs1
  Biofilm kill mix = 9

Structure: COC(=O)c1c(C)oc(C)c1S(=O)(=O)N(Cc1ccccc1)C(C)C
  Biofilm kill mix = 10

New compounds follow
Structure	Biofilm kill mix
CCCCC(=O)Nc1ccc(NC(=O)c2cnccn2)cn1	6
Cn1c(CN2CCN(C(=O)c3ccccc3)CC2)nc2cc([N+](=O)[O-])ccc21	12
CN(C)C=NC(=O)c1cc(C(=O)c2ccc(Cl)cc2)c[nH]1	13
COc1ccc(-c2nc(CCl)cs2)cc1	10
CNc1nc(-c2ccccc2)[n+](-c2ccc(C)cc2)s1	12
N#Cc1c(/N=C\c2ccc(O)c([N+](=O)[O-])c2)sc2c1CCCC2	10
Cc1cccc(N2CC(C(=O)Nc3nnc(SCC(=O)Nc4nccs4)s3)CC2=O)c1 (centres undefined)	13
CCN(CC)CCN(C(=O)c1ccc([N+](=O)[O-])cc1)c1nc2c(OC)cccc2s1	10
CCOc1c(C(=O)CC)cc2c(C)cc(=O)oc2c1C	10
S=C(NCCc1ccccn1)Nc1ccc(Cl)cc1	17
CN(C)c1ccc(N=Nc2ccccc2C(=O)OCC(=O)N(C)C2CCCCC2)cc1	2
CS(=O)(=O)NCCNC(=O)c1cc(OCC(F)(F)F)ccc1OCC(F)(F)F	10
CC1CCC(NCC(=O)Nc2cccc(S(N)(=O)=O)c2)CC1 (centres undefined)	16
O=C(c1ccccc1F)N1CCN(c2cnn(-c3cccc(Cl)c3)c(=O)c2Cl)CC1	-11
CN(/N=C/c1ccc([N+](=O)[O-])o1)c1ccccc1	23
CC(C)c1nnc(NC(=O)Cc2ccccc2[N+](=O)[O-])s1	-1
COC(=O)CCNC(=O)Cn1cnc2sc3c(c2c1=O)CCCC3	25
O=C(Nc1ccccc1Cl)/C(Cl)=C(\Cl)S(=O)c1ccccc1 (centres undefined)	13
CCCCn1c(N)c(N(CC(C)C)C(=O)CCCSc2nncs2)c(=O)[nH]c1=O	6
CCn1c(/C=C2\C(=O)Nc3ccccc32)nc2ccccc2c1=O	3

Five structures out of the list, arranged by molar mass, descending.
Structure	Biofilm kill mix
CCCCn1c(N)c(N(CC(C)C)C(=O)CCCSc2nncs2)c(=O)[nH]c1=O	6
Cc1ccc2nsnc2c1NC(=O)COc1ccccc1F	12
CC(C)c1nnc(NC(=O)Cc2ccccc2[N+](=O)[O-])s1	-1
CN(C)C=NC(=O)c1cc(C(=O)c2ccc(Cl)cc2)c[nH]1	13
CCOc1c(C(=O)CC)cc2c(C)cc(=O)oc2c1C	10

(further entries)
Structure	Biofilm kill mix
O=C(NCCc1ccccc1)C1CCN(C2CCN(Cc3ccco3)CC2)CC1	12
CC(=O)NC1=NN(C(C)=O)C(c2ccc(C(C)C)cc2)S1 (centres undefined)	6
CN1C(CC(=O)Nc2ccc(Cl)cc2Cl)c2ccccc2CC1(C)C (centres undefined)	16
CCOc1ccc(NC(=O)c2cc(F)c(F)cc2Cl)cc1OCC	19
CCOP(=O)(OCC)C(NC(=O)Nc1ccc(Cl)c(Cl)c1)C(N)=O (centres undefined)	12
NC(=S)N=Nc1c(O)n(CCCl)c2ccc(Cl)cc12	5
Cn1c(=O)c(=O)n(C)c2cc(S(=O)(=O)N3CCCC3C(=O)NCc3cccs3)ccc21 (centres undefined)	22
CCOC(=O)C(c1ccccc1)C(Nc1cc(C(F)(F)F)cc(C(F)(F)F)c1)c1ccccn1 (centres undefined)	3
Cc1cc(C)cc(N(C(=O)c2csnn2)C(C(=O)NC(C)(C)C)c2cccnc2)c1 (centres undefined)	9
O=C(NN1C(=O)c2ccccc2NC1c1cccnc1)c1ccc([N+](=O)[O-])cc1 (centres undefined)	11
Cc1ccc(C2Nc3ccccc3C(=O)N2CCCN2CCOCC2)cc1 (centres undefined)	10
CN(Cc1nc(-c2cnccn2)no1)CC(O)c1ccccc1 (centres undefined)	6
O=C(c1c(F)cccc1F)N(Cc1cccs1)C1CCCC1	25
C1CN=C(NC23CC4CC(CC(C4)C2)C3)C1	10
COc1cc(/C=C2/C(=O)ON=C2c2ccccc2)ccc1O	9
CCCCn1nc(CC(=O)NCCN(CC)CC)c2ccccc2c1=O	10
O=C(Nc1nnc(C2CC2)s1)C1=NN(C2CCS(=O)(=O)C2)C(=O)CC1 (centres undefined)	7
CC1(C)CC(CNCCC(c2ccc(F)cc2)c2ccco2)CCO1 (centres undefined)	-2
N#CC1=C(N)N(c2ncn[nH]2)C2=C(C(=O)CCC2)C1c1ccc(F)cc1 (centres undefined)	-6
Cc1ccc(Nc2nc(CSc3nnc(-c4ccncc4)n3-c3ccccc3C)cs2)cc1	-19
Cc1ccc(S(=O)CCNC(=O)Cc2ccccc2)cc1 (centres undefined)	-18
COC(=O)c1sc(N2CCN(c3ccc(Cl)cc3)CC2)nc1N	11
Nc1nc2ncc(C(=O)c3cc(Cl)cc(Cl)c3O)cc2s1	22
Cc1cccc(C)c1NC(=O)c1sc(N)nc1-c1ccccc1	14
Fc1cccc(CN2CCN(Cc3nc(CCc4ccccc4)no3)CC2)c1	7
COC(OC)c1ccnc(-c2ccc(OC(=O)c3ccc(F)cc3)cc2)n1	11
CCC(C)(C)NC(=O)c1cc(S(=O)(=O)N2CCCCC2)ccc1N1CCOCC1	-1
CCC(C)n1c(SCC(=O)NC(=O)c2cccn2C)nc2ccccc2c1=O (centres undefined)	14
CN(C)c1ccc(/C=N/NS(=O)(=O)c2ccc(Br)cc2)cc1	4
COc1cc2c(cc1NC(=O)C(C)OC(=O)/C=C/c1ccc(OC(F)F)cc1)oc1ccccc12 (centres undefined)	19
C[C@@H]1CN(Cc2nc(-c3ccc(Cl)cc3)no2)C[C@H](C)O1	22
Cc1cccc(S(=O)(=O)NNC(=O)c2cc(-c3ccc(F)cc3)nc3ccccc23)c1	18
O=P(COCCOCCOCCOCP(=O)(c1ccccc1)c1ccccc1)(c1ccccc1)c1ccccc1	14
C=CCNC(=O)COC(=O)c1oc2ccccc2c1CSC1CCCCC1	10
Cc1sc(N)c(C(=O)c2ccccc2Cl)c1C	8
Cc1ccccc1NC(=S)NC(C)C(c1ccccc1)N1CCN(C)CC1 (centres undefined)	7
C=CCn1c(CNC(=O)c2cccs2)n[nH]c1=S	11
CN(Cc1ccco1)S(=O)(=O)c1ccc2c(c1)CCN2C(=O)CCC(=O)O	15
Cc1cc(C)c(NC(=O)C2CCCN2C(=O)NC2CCCCC2)c(C)c1 (centres undefined)	7
COC(=O)CCc1c(C)c(C(=O)c2ccc(F)cc2)c2ccccn12	13

(continued)
SMILES,Biofilm kill mix
COc1ccc(S(=O)(=O)NC(N)=NCCc2ccc(OC)c(OC)c2)cc1C,14
COc1cc(OC)c2c(c1)S(=O)(=O)C(c1ccccc1)=C2N,11
O=C(c1cccc(S(=O)(=O)NCc2ccccc2)c1)N1CCCC1,14
CC(C)CCNC(=O)c1ccc(CS(=O)(=O)Cc2ccccc2F)o1,11
CS(=O)(=O)Nc1ccc(C2=NN(C(=O)c3ccco3)C(c3ccccc3)C2)cc1 (centres undefined),14
Cc1ccc(NC(=O)Nc2cccc(C(F)(F)F)c2)nc1,12
Cc1ccc(C(=O)NNC(=O)c2cccc(C)c2)cc1,14
CCOC(=O)c1nc2ccccc2nc1C,18
Cc1cccc(Nc2nc3ccccc3n3nnnc23)c1,0
Cc1c(O)ccc2c(=O)c(-c3nncn3-c3ccccc3)coc12,11
Cc1noc(C)c1COc1ccc(C(=O)OCC(N)=O)cc1,14
CCOC(=O)c1ccc(NC(=O)Oc2cc(C)c(Cl)cc2C(C)C)cc1,23
COc1ccc(-c2noc(CCC(=O)O)n2)cc1,19
COc1ccc(NC(=O)CC2C(=O)N(c3ccccc3)C(=O)N2Cc2ccco2)cc1 (centres undefined),17
CCOc1ccc2ccccc2c1/C=N/NC(=O)CC1(C)OCCCO1,9
CN1CCCN(c2ncnc3scc(-c4ccc(F)cc4)c23)CC1,7
COc1ccc(-n2cccc2/C=C2\C(=N)N3N=C(C(C)C)SC3=NC2=O)cc1,16
COCCNC(=S)Nc1ccc(N2CCCCC2)cc1,13
COc1ccc(C2Cc3ccccc3C(=O)O2)cc1 (centres undefined),17
CSc1cccc(NC(=O)Cc2ccccc2[N+](=O)[O-])c1,14
O=C(CNCCc1ccccc1)N1CCc2ccccc2C1,11
Cc1ccc2nc(N(CCCN(C)C)C(=O)c3sc4ccccc4c3Cl)sc2c1,9
Cc1ccccc1C(=O)NNC(=O)c1cccc([N+](=O)[O-])c1,2
O=C(C1CCN(C2CCN(Cc3ccc4c(c3)CCO4)CC2)CC1)N1CCOCC1,1
O=C(NCC(=O)N(CC1CCCO1)C(C(=O)NC1CCCCC1)c1cccnc1)c1cccs1 (centres undefined),17
COc1ccc(CCNC(=O)C(=O)NN=C2CCCCCCC2)cc1OC,3
O=C(c1ccco1)N(CCO)Cc1cc2cc3c(cc2[nH]c1=O)OCO3,11
COc1ccc2[nH]cc(CCCN3C(=O)c4ccccc4C3=O)c2c1,12
O=C(N/N=C/c1cc2c(cc1Cl)OCO2)c1ccc2c(c1)OCCO2,28
COc1cccc(OC)c1C(=O)Nc1ccc2c(c1)Cc1ccccc1-2,12
NC(=O)C(CC(=O)O)NC(=O)[C@@H]1CCCNc2c(I)cc([N+](=O)[O-])cc2C(=O)N[C@@H](CO)C(=O)N[C@@H](Cc2ccc(O)cc2)C(=O)N1 (some centres undefined),18
COc1ccc(OC)c(-c2csc(N3CCC(c4ccccc4)CC3)n2)c1,8
CNC(=S)N(CCc1ccccc1)Cc1cc2cc(OC)c(OC)cc2[nH]c1=O,17
CC(Oc1ccc(F)cc1)c1ccnc2nc(/N=C/N(C)C)nn12 (centres undefined),-2
O=C(Nc1cccc2nsnc12)c1cccnc1,-2
CC(C)c1ccc(NC(=S)NCCc2c[nH]c3ccccc23)cc1,10
Cc1ccc2nc(NC(=O)c3ccccn3)sc2c1,-5
CCCNC(=S)Nc1ccc(S(N)(=O)=O)cc1,9
CCCCCCN(C(=O)CCCCCN1C(=O)NC(c2ccc(-c3ccccc3)cc2)C(C(=O)OCc2ccccc2)=C1C)C(C(=O)NCCCC)c1ccccn1 (centres undefined),11
O=c1c2oc3ccccc3c2[nH]c(=S)n1-c1ccccc1,11
CCOC(=O)C1(CCc2ccccc2)CCN(C(=O)Cc2nonc2C)CC1,6
Cc1cccc(OCc2n[nH]c(=S)n2C2CCCCC2)c1,16
NC(=S)NNC(=O)c1cccc(Br)c1,13
O=c1[nH]c(=O)n([C@H]2C[C@H](O)[C@@H](CO)O2)cc1C(F)(F)F,7
O=C(Nc1ccc(Cl)cc1)Nc1nnc(CSCc2ccccc2Cl)s1,13
COc1cccc(/C=C/C(=O)OCC(=O)Nc2ccc(Cl)cn2)c1,-9
CCOC(=O)c1c(C)[nH]c(-c2csc(N)n2)c1C,16
O=c1c2cccnc2n(-c2ccccc2)n1Cc1c(Cl)cccc1Cl,10
Nc1nc2c(nc(SCc3ccccc3Br)n2C2OC(CO)C(O)C2O)c(=O)[nH]1 (centres undefined),13
Fc1ccc(N/N=C2/CCSc3sccc32)c(F)c1,22

5 compounds picked at random from the list so far:
SMILES,Biofilm kill mix
Fc1ccc(N/N=C2/CCSc3sccc32)c(F)c1,22
O=c1[nH]c(=O)n([C@H]2C[C@H](O)[C@@H](CO)O2)cc1C(F)(F)F,7
CCOC(=O)C1(CCc2ccccc2)CCN(C(=O)Cc2nonc2C)CC1,6
CCOC(=O)c1c(C)[nH]c(-c2csc(N)n2)c1C,16
NC(=S)NNC(=O)c1cccc(Br)c1,13

Bioassay records from PubChem BioAssay.
